# Assay outcomes deposited in PubChem BioAssay by National Center for Advancing Translational Sciences (NCATS).
# TRPML1 agonist – agonists of human TRPML1 channel | Q9GZU1 | TRPML1-expressing cells, Ca2+ dye fluorescence, FDSS; host cell line not named in the record; reference of the full effect not given here | activation, % (concentration not given with the values) | hit rate 0.12% among 410,000 | AID 624414; in the data active = activation above about 50%; inconclusive = about 30% to 50%; inactive = below about 30%; further: 0% is about no effect; the text of the record puts the active cut at 80%
# Target sequence (Q9GZU1 whole entry, looked up): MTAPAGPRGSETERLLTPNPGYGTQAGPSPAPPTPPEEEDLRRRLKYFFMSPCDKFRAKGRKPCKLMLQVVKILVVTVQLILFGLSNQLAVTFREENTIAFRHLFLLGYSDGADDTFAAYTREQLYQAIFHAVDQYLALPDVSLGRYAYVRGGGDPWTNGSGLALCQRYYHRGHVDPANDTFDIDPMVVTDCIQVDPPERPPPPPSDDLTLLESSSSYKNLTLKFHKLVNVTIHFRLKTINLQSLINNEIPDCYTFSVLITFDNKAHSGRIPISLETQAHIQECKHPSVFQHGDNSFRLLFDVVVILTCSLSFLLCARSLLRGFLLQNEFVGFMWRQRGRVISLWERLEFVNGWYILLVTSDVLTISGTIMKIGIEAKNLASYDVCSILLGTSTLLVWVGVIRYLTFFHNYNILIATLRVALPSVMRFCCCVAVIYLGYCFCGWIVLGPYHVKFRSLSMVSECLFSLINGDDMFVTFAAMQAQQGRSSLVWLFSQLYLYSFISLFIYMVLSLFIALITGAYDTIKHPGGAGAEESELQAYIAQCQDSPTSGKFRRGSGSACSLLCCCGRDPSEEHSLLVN
#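 Tetracycline-induced TRPML1-DL cells are seeded and incubated overnight before loading with a no-wash Ca2+ dye and quencher. Agonist activity is taken from the 110 s fluorescence read following compound pin-transfer on an FDSS, before EC80 54-4 challenge.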
# Menin-MLL FL inh – menin-MLL binding inhibition, fluorescein peptide. AID 1766. 290,000 tested, under 10 active. FP activity change, % at 61.4 µM. Fluorescence polarization, fluorescein-MLL peptide displacement from menin; inconclusive = falling polarisation curve, or a change in total fluorescence; inactive = total fluorescence flat and polarisation flat or rising; no compound was filed as active; the % refers to the polarisation; negative = inhibition;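 further: % of control where 0% means no effect; inhibitors lower the polarisation; unlabelled MLL peptide was the positive control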
# Sfp inh – Sfp phosphopantetheinyl transferase inhibition; Q9F4F7; Biochemical Sfp PPTase activity, qHTS; Potency, µM, inactives show max response, negative = inhibition, most hits filed as inhibitors; hit rate 3.5% among 310,000; AID 1490; active means well fitted inhibition curve with a large enough effect; inconclusive means small, poorly fitted or top-dose-only effect, or another doubt; inactive means no such curve, though single readings can be large or run the other way;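 further: the enzyme is Sfp with the accession as filed and its product quenches rhodamine fluorescence; potency means the concentration at half of the fitted maximal effect; 0% = enzyme reaction without inhibitor and -100% = no enzyme wells; top concentration of the series not given in the record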
#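 Compounds were incubated with enzyme (final 15 nM) for 15 min at room temperature before substrate addition started the reaction. Fluorescence at 525 nm excitation, 598 nm emission was recorded immediately and after 30 minutes.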
# TRPML1 inh – human mucolipin-1 channel inhibition; TRPML1-inducible cells, Ca2+ dye fluorescence, FDSS; stronger effect = lower value; inhibition of EC80 agonist-evoked calcium signal; hit rate 0.02% among 390,000; activity change, negative = inhibition, % (no concentration beside the values); AID 624415; in the data active means activity change below about -50%; inconclusive means about -30% to -50%; inactive means above about -30%;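 further: stimulus is agonist 54-4 at its EC80 concentration; on the % scale 0 is the no-effect control and ±100 the full control effect; compound concentration not given in the record; the text of the record puts the active cut at -80%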
#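 TRPML1-DL cells, Tet-induced overnight (~16 h, 37 °C) at 1,500 cells/well, were loaded with Ca8 no-wash dye plus quencher for 45-90 min at room temperature. Compounds were pinned during FDSS kinetic reading; agonist 54-4 at EC80 (4 uM final) then added.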
# ClpP mod – qHTS Assay for Activators of ClpP; hit rate 1.9% among 340,000; Potency, µM (series often up to 57.5 µM), for inactives: at the highest dose activity change, negative = active; purified B. subtilis ClpP, FRET peptide cleavage, 20 min; active = well fitted falling curve with a large enough effect; inconclusive = small, poorly fitted or top-dose-only effect; inactive = no such curve, though single readings can be large or run the other way; further: potency means the concentration at half of the fitted maximal effect; the source files actives as falling curves though it sought activators and does not explain the sign; nearly all actives have a fitted effect of over 65% in size; many hits overshoot -100%
# Target sequence (P80244 whole entry, looked up): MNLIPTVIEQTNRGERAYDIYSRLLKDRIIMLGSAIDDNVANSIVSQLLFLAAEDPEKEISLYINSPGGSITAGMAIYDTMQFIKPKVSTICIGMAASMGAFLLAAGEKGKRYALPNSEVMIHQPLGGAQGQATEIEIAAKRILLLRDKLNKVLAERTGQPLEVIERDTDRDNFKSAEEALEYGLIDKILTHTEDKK
#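 FRET quenching reversal measured ClpP activation: 10 microg/mL B. subtilis ClpP at pH 8 with the FRET-FV decapeptide, read at 430 nm after 320 nm excitation. The 20-min minus 0-min signal was scaled between DMSO/no-enzyme wells and ADEP (5.8 microM final).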
# PINK1 expr mod – changes PINK1 expression; AID 624263; Potency, µM (top dose mostly 76.6 µM), without a hit: top-dose activation (PINK1 increase), most hits filed as activators; hit rate 0.2% among 410,000; PINK1 immunofluorescence, high-content cytometry, 24 h; active = well fitted activation curve with a large enough effect; inconclusive = small, poorly fitted or top-dose-only effect; inactive = flat fitted curve, though single readings scatter; cell line not stated here;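 further: potency means the concentration at half of the fitted maximal effect; % of control where 0% means no effect; nearly all actives have a fitted effect of over 65% in size; a mitochondrial uncoupler was the plate control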
#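 Decision-based qHTS: stable cells, 24 h exposure to five compound concentrations, CCCP as control. Fixed cells stained for PINK1 plus nuclear, mitochondrial and cell markers, cytometer read.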
# TRPV1 potentiator – human TRPV1 potentiation | Q8NER1 | TRPV1-expressing cells, Fluo-8 calcium influx, capsaicin EC20 potentiation; host cell line not named in the record; control for the full effect not named in the record | potentiation, % at 8.33 µM | hit rate 0.02% among 320,000; active means potentiation above 80%; inconclusive means 30% to 80%; inactive means below 30%; further: 0% is about no effect
#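 Fluo-8 calcium influx in TRPV1-expressing cells, kinetic read (ex 480/em 520 nm). Compound added and read 3 min for agonist activity, followed by capsaicin at EC20 final and 2 min further read for enhancement.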
# An asterisk follows results filed as active; ? = inconclusive; · = not tested or not shown; & = joins results of further samples; [ ] = remark or other dose. Compounds were not picked by outcome; overall some 4.4% were active at least once.
SMILES,TRPML1 agonist,Menin-MLL FL inh,Sfp inh,TRPML1 inh,ClpP mod,PINK1 expr mod,TRPV1 potentiator
COc1ccccc1-c1nnc2sc(COc3ccc(Cl)cc3)nn12,3.4,2.6,-8%,-3,-2.8%,0.4%,-9
O=C(NCCCc1ccccc1)c1ccncc1,0.5,2.2,13%,-5,-0.2%,0.6%,-10
NS(=O)(=O)c1ccc(CCNC(=O)C2CCCCN2S(=O)(=O)c2ccccc2)cc1 (configuration not stated),-0.1,0.6,12%,9,0.1%,-2.2%,0
Cc1nc([N+](=O)[O-])c(Sc2nc3ccccc3n2C)n1Cc1ccccc1,1.0,1.1,-20%,-2,1.3%,-1.1%,-4
COc1ccc(S(=O)(=O)NCC2CCCN(Cc3ccc(C)o3)C2)cc1 (configuration not stated),0.4,0.6,-25%,7,·,-1.2%,1
O=[N+]([O-])c1ccc(N2CCN(c3ccc(F)cc3)CC2)cc1,2.2,-4.6,1%,1,·,2.2%,?
Cc1cccc(C(=O)Nc2nnc(SCC(=O)NC3CC3)s2)c1,0.5,-2.5,7%,-52*,·,1.3%,13
COc1ccccc1N1CC(C(=O)Nc2cccc(C(=O)O)c2)CC1=O (configuration not stated),-1.7,-1.1,8%,-9,-4.5%,-0.7%,7
CCN(CC(=O)Nc1cccc(OC)c1)C(=O)c1ccco1,2.7,-6.9,10%,10,0.1%,1.2%,17
COc1ccc(C(C(=O)Nc2ccc(C(C)C)cc2)N(C)C(=O)Cc2cccs2)cc1 (configuration not stated),3.0,·,·,-7,0.3%,2.9%,·
CCOc1ccc(N2C(=O)C3C(c4ccc(O)cc4)NC(CCSC)(C(=O)OC)C3C2=O)cc1 (configuration not stated),0.8,-5.5,8%,-15,·,0.9%,2
CCN(CC)S(=O)(=O)c1cccc(NC(=O)COC(=O)c2ccc(Br)o2)c1,1.6,-0.1,21%,-6,-1.1%,1.0%,-1
O=C(O)C1C2C=CC(C2)C1C(=O)NCCC1=CCCCC1 (configuration not stated),0.2,-2.1,4%,14,0.9%,7.6%[38.3 µM],-1
Cc1nc2ccc(C(=O)N(C)Cc3ccco3)cn2c1N(C)CC1CCCCC1,1.4,·,·,27,-0.9%,0.2%,·
O=C(C1CCCO1)N1N=C(c2ccc(Br)cc2)CC1c1ccco1 (configuration not stated),0.6,-0.5,-36%,5,-1.1%,0.5%,10
COc1ccc(CNC(=O)c2cc(-c3ccc(C)cc3)nc3n[nH]c(-c4ccc(Br)cc4)c23)cc1,-0.1,·,·,-18,-5.1%,1.7%,·
O=C(NC(Cc1c[nH]c2ccccc12)C(=O)N/N=C/c1ccc(Br)cc1)c1cccs1 (configuration not stated),-0.3,-5.3,16%,-15,·,-1.8%,?
CCN(CC)C(=O)C1=C(C)N(CCCOC)C(=O)C(CC(=O)NCc2ccco2)C1 (configuration not stated),0.8,·,·,21,-3.0%,-1.8%,·
Cc1nn(-c2ccc(F)cc2)c(Cl)c1/C=N/NC(=O)c1ccc(O)cc1,-0.2,-0.7,8%,-4,·,0.2%,-7
CCOC(=O)c1ccc(NC(=O)C2(S(=O)(=O)c3ccc(Cl)cc3)CC2)cc1,3.9,·,·,42,-0.9%,0.9%,·
Cc1ccnc2cc(Cl)c(Cl)cc12,-0.5,·,·,·,-1.3%,0.6%,·
Cn1c(C(=O)O)ccc1S(=O)(=O)N(Cc1ccccc1)Cc1ccccc1,1.1,-0.4,6%,11,-1.1%,-1.9%,-15
CCCCC(=O)Nc1ccc(C)c(O)c1,-0.7,3.0,23%,-6,1.5%,1.4%,-22
COc1ccc(C=CC(O)CCN2CCC3CCC(C3)C2)cc1 (configuration not stated),0.1,·,·,-1,·,-2.6%,·
O=C(CSc1n[nH]c(-c2ccncc2)n1)Nc1ccc(Cl)c(C(=O)O)c1,-0.3,-4.6,8%,20,·,0.3%,-8
COCCSc1ccccc1C(=O)N1CCN(c2ccccc2)CC1,0.0,-4.1,13%,4,0.9%,1.0%,4
COc1ccc(CCOC2OC(CO)C(OC(=O)/C=C/c3ccc(O)c(OC)c3)C(O[C@H]3O[C@@H](C)[C@H](O)[C@@H](O)[C@H]3O)C2O)cc1O (some centres not stated),0.4,·,·,13,-19%,2.6%,·
CCCCOc1ccc(-c2ncc(C(=O)OCC)c(N)n2)cc1,0.1,1.7,3%,-8,?,4.8%[38.3 µM],0
COc1cccc(C2CC(c3c(-c4ccccc4)c4cc(Cl)ccc4[nH]c3=O)=NN2S(C)(=O)=O)c1OC (configuration not stated),3.3,14,-3%,-17,?,-2.7%,0
Cc1cccc(OCCSc2nc3ncnc(N)c3[nH]2)c1,1.6,0.4,-3%,39,·,1.1%,10
O=C(c1cc2c(s1)-c1ccccc1OC2)N1CCc2ccccc2C1,-0.2,-0.8,-23%,-6,5.5%,1.8%,-23
COc1cc(/C=C/c2ccnc3ccccc23)cc(OC)c1OC,-0.6,·,·,·,-4.0%,13%,·
COC(=O)C1=COC(OC2OC(CO)C(O)C(O)C2O)C2C1C=CC2(O)CO (configuration not stated),·,-0.3,14%,·,-2.1%,1.8%,-8
Cc1cc(NC(=O)COC(=O)CC2CCCC2)c([N+](=O)[O-])cc1C,-0.4,·,-12%,-10,-2.8%,0.0%,-6
COc1ccc(OCc2cc(C(=O)N(C)C(C)c3ccon3)no2)c(Cl)c1 (configuration not stated),0.0,·,19%,10,-11%,1.5%,1
OCC1OC(n2cnc3c(NCc4ccco4)ncnc32)C(O)C1O (configuration not stated),0.1&-0.3,0.6,20%,-2,-3.5%&0.9%,-6.5%&-0.3%&-0.8%,·
Cc1ccc(NC(=O)CCC(=O)NCCO)cc1,0.9,0.7,24%,-12,0.5%,-0.3%,8
Cc1ccsc1C(=O)Nc1cc(Cl)ccc1-n1cncn1,2.2,·,·,40,0.5%,4.5%,·
COc1ccccc1CNC(=O)CN1C(=O)CSc2ccc(S(=O)(=O)N3CCCCC3)cc21,1.9,·,·,-5,-1.9%,-4.1%,·
CCCCSc1nnc(-c2ccccc2)c2ccccc12,2.7,6.1,-8%,45,-1.6%,5.8%,1

# Just Menin-MLL FL inh (2 entries from above):
canonical_smiles | Menin-MLL FL inh
Cc1nn(-c2ccc(F)cc2)c(Cl)c1/C=N/NC(=O)c1ccc(O)cc1 | -0.7
COc1cccc(C2CC(c3c(-c4ccccc4)c4cc(Cl)ccc4[nH]c3=O)=NN2S(C)(=O)=O)c1OC (configuration not stated) | 14

# (listing goes on)
SMILES,TRPML1 agonist,Menin-MLL FL inh,Sfp inh,TRPML1 inh,ClpP mod,PINK1 expr mod,TRPV1 potentiator
COc1cccc(OC)c1OC(=O)C1CC(=O)N(c2ccc3c(c2)OCCO3)C1 (configuration not stated),0.3,·,·,-7,2.5%,-1.2%,·
CCc1nc2c(OCCn3cccc3)cccn2c1N(C)C(=O)c1ccc(OC)cc1,-1.1,·,·,·,-1.3%,0.1%,·
O=C(/C=C/c1ccccc1)NC(=S)NNC(=O)Cc1cccs1,1.8,1.6,-9%,-1,1.4%,2.3%,5
Cn1c(=O)cc(SCC(=O)Nc2cccc(C#N)c2)c2ccc(Cl)cc21,-0.4,·,·,-17,-2.6%,-0.8%,·
Cc1noc(C)c1C(=O)OCC(=O)NC(c1ccccc1)c1ccccc1,1.1,-6.6,21%,-5,-1.0%,3.8%[38.3 µM],-11
Cc1ccc(CNC(=O)CCC(=O)c2cccs2)cc1,0.0,-0.7,-9%,-22,-0.6%,·,11
CCc1ccc(S(=O)(=O)Nc2ccc(O)c3ccccc23)cc1,-0.2,-23,-3%,17,2.4%,9.8%,17
O=C(Nc1cccc2[nH]ncc12)NS(=O)(=O)c1ccccc1,0.7,8.0,-15%,3,-12%,4.5%,-1
CC(C)N(CCO)Cc1nc(C(c2ccccc2)c2ccccc2)no1,-0.9,-5.3,14%,39,-0.8%,-1.3%,-9
CCOC(=O)c1nc(C)sc1-c1ccnn1S(=O)(=O)c1ccc(Cl)cc1Cl,-0.2,4.9,2%,1,0.5%,8.0%,0
CC(=O)C1(O)C(C)CC2C3CC=C4CC(O)CCC4(C)C3CCC21C (configuration not stated),-0.1,·,·,6,·,-1.7%,·
Cc1cc(C)c(NS(=O)(=O)c2ccc3c(c2)CC(C)N3C(=O)C2CCC2)c(C)c1 (configuration not stated),1.5,·,·,36,0.3%,2.1%,·
Cc1ccc(C)c(Nc2nnc(-c3ccc(C)c(S(=O)(=O)N4CCN(C)CC4)c3)c3ccccc23)c1,-0.9,·,·,-8,-1.1%,-0.1%,·
COc1cccc(C2C(C(C)=O)=C(C)Nc3ncnn32)c1 (configuration not stated),-0.4,-1.6,4%,-11,?,1.0%,-8
CC1CN(C(=O)Nc2ccc(C(=O)NCCc3ccccc3Cl)cc2)c2ccccc2S1 (configuration not stated),1.2,·,·,-5,-1.0%,0.1%,·
CCOC(=O)C(=NCCCN(C)C)NNc1cc(C(F)(F)F)ccc1Cl,0.3,3.7,-35%,40,·,6.2%,-9
COc1ccc(NC(=O)c2c(C)nn(Cc3ccccc3)c2C)cc1S(=O)(=O)N(C)C,0.8,-1.7,20%,18,·,1.6%,-15
CCCc1ccc(C(=O)N2CCN(c3ccccc3OCC)CC2)cc1,2.8,0.8,0%,28,-0.7%,-4.3%[38.3 µM],-30
CCc1c(C)nc(N)n2c(SCC(=O)NC3CCCCC3)nnc12,-0.3,·,11%,-4,·,0.0%,-1
CCS(=O)(=O)N1Cc2ccccc2CC1C(=O)Nc1nnc(C2CC2)s1 (configuration not stated),1.9,-1.1,13%,20,14%,2.4%,13
Nc1nc(-c2ccc3c(c2)CCC(=O)N3)cs1,-0.1,-3.4,40µM*,-1,-0.7%,-0.3%,11
CCn1cc2nc(SCc3cccc(F)c3)n(CCc3ccccc3)c(=O)c2n1,0.5,·,·,-7,-2.9%,18%,·
